Assay outcomes (PubChem BioAssay)
DUX4 inh: blocks DUX4-driven transcriptional activation | 293T-iDUX4 ZSCAN4-Gaussia luciferase reporter, 24 h; active compounds read low | actives 0.8% (n = 37,000) | activity change, negative = inhibition, % (test concentration not listed);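 active = -10% or lower and over 25 points stronger than a control reporter; inconclusive = -10% or lower with a smaller gap; inactive = above -10%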;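 note: 0% = median of neutral control wells and -100% = median of positive control wells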
DUX4 inh difference: also measured in DUX4 inh; calls as there; Gaussia minus Italica difference, %; measured here: selective DUX4 reporter inhibition;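 worked out from the two reporters; negative = selective loss of the DUX4 reporter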
DUX4 inh control: recorded beside DUX4 inh, whose call it bears; activity change, negative = inhibition, %; measured here: Italica tet-on control reporter;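 0 = neutral control and -100 = positive control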
* marks the source's active call; other numbers are inactive results; ? = inconclusive; / = not tested or not shown; & = joins results of further samples. These rows are one share of the data (hit frequency here may not be typical).

structure,DUX4 inh,DUX4 inh difference,DUX4 inh control
C[C@@H](NC(=O)C[C@@H]1C[C@@H]2c3cc(NC(=O)c4cccnc4)ccc3O[C@@H]2[C@@H](CO)O1)c1ccccc1,7,7,0.3
CN1c2ccc(C3=CCCCC3)cc2[C@H]2[C@H](CCN2C(=O)Cc2ccccn2)[C@@H]1CO,15,14,0.6
COCC(=O)N1[C@@H](CO)[C@@H](c2ccc(-c3cccc(OC)c3)cc2)C12CN(C(C)=O)C2,-7,-5,-1.1
C[C@@H]1CN([C@H](C)CO)C(=O)c2cc(C#CC3(O)CCCC3)cnc2O[C@H]1CN(C)C(=O)Nc1ccc2c(c1)OCO2,0,-2,1.9
O=C(C[C@@H]1CC[C@@H]2[C@H](COC[C@H](O)CN2S(=O)(=O)c2ccccc2Cl)O1)N1CCC(Cc2ccccc2)CC1,-9,0,-8.8
COc1cccc(C#Cc2ccc([C@@H]3[C@@H](CO)N(C(=O)C4CCOCC4)[C@H]3C#N)cc2)c1,1,-4,4.3
O=C(C[C@@H]1C[C@@H]2c3cc(NC(=O)c4cccnc4)ccc3O[C@@H]2[C@@H](CO)O1)NCCc1ccccc1,6,4,1.7
C[C@H](CO)N1C[C@H](C)[C@H](CN(C)Cc2ccc(-c3ccccc3)cc2)OCc2ccccc2-c2ccccc2C1=O,-7,-10,2.9
COc1ccccc1-c1ccc([C@@H]2[C@@H](C#N)N(C(=O)CN(C)C)[C@H]2CO)cc1,0,6,-6.4
CNC[C@H]1Oc2ncc(-c3ccc(C#N)cc3)cc2C(=O)N([C@@H](C)CO)C[C@H]1C,0,1,-0.6
COc1ccc(-c2ccc([C@H]3[C@@H](C#N)N(C(=O)C4CCCC4)[C@@H]3CO)cc2)cc1,-6,-7,1.1
COc1cccc(S(=O)(=O)N2CCCCN3[C@H](C2)[C@H](c2ccc(C#CC4CC4)cc2)[C@@H]3CO)c1,-8,1,-9.1
O=C(NC1CCC1)[C@H]1[C@H](CO)[C@H]2Cn3c(ccc(C4=CCCC4)c3=O)[C@H]2N1C(=O)C1CCC1,13,10,3.4
COCC(=O)N1CC(=O)N2[C@@H](CO)[C@@H](c3ccc(Br)cc3)[C@@H]2C1,4,-5,8.4
CCCNC(=O)C[C@@H]1CC[C@H]2[C@@H](COc3ccc(NC(=O)Cc4cccs4)cc3C(=O)N2C)O1,-1,-10,9.1
CCCC(=O)Nc1ccc2c(c1)OC[C@@H](C)NC[C@@H](C)[C@@H](OC)CN(C)C2=O,-3,-13,9.9
N#Cc1cccc(-c2ccc3c(c2)[C@@H]2[C@@H](CCN2S(=O)(=O)c2ccccc2F)[C@@H](CO)N3)c1,?,/,/
CCOC(=O)N(C)C[C@H]1OCc2ccccc2-c2c(n(C)c3ccccc23)C(=O)N([C@@H](C)CO)C[C@@H]1C,-4,1,-4.3
CCCNC(=O)N1C[C@@H](C)[C@@H](OC)CN(C)C(=O)c2cc(NS(C)(=O)=O)ccc2OC[C@@H]1C,-1,-8,7.1
N#C[C@H]1[C@@H](c2ccc(C#Cc3ccc(F)cc3)cc2)[C@H](CO)N1C(=O)C1CCC1,2,-1,2.9

Full records from above. Order of screens: DUX4 inh, DUX4 inh difference, DUX4 inh control
Listed for CCOC(=O)N(C)C[C@H]1OCc2ccccc2-c2c(n(C)c3ccccc23)C(=O)N([C@@H](C)CO)C[C@@H]1C → -4, 1, -4.3
Listed for CNC[C@H]1Oc2ncc(-c3ccc(C#N)cc3)cc2C(=O)N([C@@H](C)CO)C[C@H]1C → 0, 1, -0.6
Listed for COCC(=O)N1CC(=O)N2[C@@H](CO)[C@@H](c3ccc(Br)cc3)[C@@H]2C1 → 4, -5, 8.4
Listed for O=C(C[C@@H]1C[C@@H]2c3cc(NC(=O)c4cccnc4)ccc3O[C@@H]2[C@@H](CO)O1)NCCc1ccccc1 → 6, 4, 1.7
Listed for CCCC(=O)Nc1ccc2c(c1)OC[C@@H](C)NC[C@@H](C)[C@@H](OC)CN(C)C2=O → -3, -13, 9.9

Next part
structure,DUX4 inh,DUX4 inh difference,DUX4 inh control
COc1ccccc1S(=O)(=O)N1CC[C@H]2[C@@H](CO)N(C)c3ccc(-c4ccc(C#N)cc4)cc3[C@H]21,-1,-8,6.7
CCCNC(=O)N[C@@H]1C=C[C@@H](CC(=O)N2CCN(C)CC2)O[C@@H]1CO,5,7,-1.4
C[C@@H]1CCCCO[C@@H](CN(C)Cc2ccc(C(=O)Nc3ccccc3N)cc2)[C@@H](C)CN([C@@H](C)CO)C(=O)c2cc(N(C)C)ccc2O1,1,-1,1.2
O=C(c1cccc(F)c1)N1CCCCN2[C@H](CO)[C@@H](c3ccc(-c4cncnc4)cc3)[C@@H]2C1,23,17,6.0
CCCC#Cc1ccc2c(c1)[C@@H]1[C@@H](CCN1Cc1cncnc1)[C@@H](CO)N2,12,8,3.6
Cc1cccc(-c2ccc(C3[C@H]4CNC[C@@H]3N4S(=O)(=O)c3ccccc3C)cc2)c1 (some centres not stated),12&12,13&-24,-0.8&36
COc1ccc(C#Cc2ccc([C@H]3[C@@H](CO)N4C(=O)CN(C(=O)c5ccncc5)C[C@H]34)cc2)cc1,13,9,4.0
CC=Cc1ccc2n(c1=O)C[C@H]1[C@H](CO)[C@@H](C(=O)NCCCN3CCOCC3)[C@@H]2N1Cc1cocn1 (mixture of isomers),-7,-9,2.3
O=C(Nc1ccccc1)N1C[C@@H]2N[C@H](C1)C2c1ccc(-c2cccnc2)cc1 (some centres not stated),-52*,-35*,-18*
COCC(=O)N(C)C[C@@H]1Oc2ncc(C#Cc3ccncc3)cc2C(=O)N([C@H](C)CO)C[C@H]1C,-2,-4,2.1
CNC(=O)C[C@H]1CC[C@H]2[C@@H](COc3ccc(NC(=O)c4ccccc4OC)cc3C(=O)N2C)O1,-2,-1,-0.8
Cc1noc(C)c1NC(=O)Nc1ccc2c(c1)C(=O)N(C)[C@@H]1CC[C@H](CC(=O)NCc3ccc(Cl)cc3)O[C@H]1CO2,-3,-1,-1.8
O=C(C[C@H]1CC[C@H]2[C@@H](COC[C@@H](O)CN2Cc2ccncc2)O1)NCC1CC1,2,-1,3.3
COc1cccc(-c2ccc3c(c2)[C@H]2[C@H](CCN2S(=O)(=O)c2ccccc2F)[C@H](CO)N3C)c1,?,/,/
C[C@H](NC(=O)C[C@@H]1C[C@H]2c3cc(NC(=O)Cc4ccncc4)ccc3O[C@H]2[C@@H](CO)O1)c1ccccc1,2,0,2.0
COc1ccc(NC(=O)Nc2cccc3c2O[C@H](CN(C)S(=O)(=O)c2cccs2)[C@H](C)CN([C@@H](C)CO)C3=O)cc1,-2,1,-2.5
CNC[C@@H]1Oc2ccc(NC(=O)Nc3c(C)noc3C)cc2C(=O)N([C@@H](C)CO)C[C@H]1C,18,15,3.3
COc1ccc(CN(C)C[C@H]2OCc3cn(nn3)CCCC(=O)N([C@H](C)CO)C[C@@H]2C)cc1,-2,-3,0.3
O=C(C[C@H]1CC[C@H]2[C@@H](COC[C@@H](O)CN2C(=O)Nc2ccc(Cl)c(Cl)c2)O1)NCc1ccc(Cl)c(Cl)c1,?,/,/
CC(C)(C)[S@@](=O)N1Cc2cc(C(=O)N3CCOCC3)nc(-c3cccc(-c4ccccc4F)c3)c2[C@H]1CCO,2,2,0.0

3 structures out of the list, arranged by molecular weight, largest number first.
structure,DUX4 inh,DUX4 inh difference,DUX4 inh control
O=C(C[C@H]1CC[C@H]2[C@@H](COC[C@@H](O)CN2C(=O)Nc2ccc(Cl)c(Cl)c2)O1)NCc1ccc(Cl)c(Cl)c1,?,/,/
CNC(=O)C[C@H]1CC[C@H]2[C@@H](COc3ccc(NC(=O)c4ccccc4OC)cc3C(=O)N2C)O1,-2,-1,-0.8
O=C(c1cccc(F)c1)N1CCCCN2[C@H](CO)[C@@H](c3ccc(-c4cncnc4)cc3)[C@@H]2C1,23,17,6.0

Continued:
Results follow in this order: DUX4 inh	DUX4 inh difference	DUX4 inh control
> COc1ccc2c3c(n(C)c2c1)[C@@H](CO)N(C(=O)C1CCC1)CC31CCN(CC2CCCC2)CC1
 : 7	-2	8.9
> CCCNC(=O)Nc1ccc2c(c1)OC[C@@H](C)N(C(=O)CC)C[C@@H](C)[C@H](OC)CN(C)C2=O
 : 1	0	0.8
> CC(=O)N(C)C[C@H]1[C@@H](c2ccc(-c3ccccc3F)cc2)[C@@H](CO)N1C(C)=O
 : 0	0	0.0
> COc1ccc(CN(C)C[C@@H]2Oc3ccc(NC(=O)Nc4ccc5c(c4)OCO5)cc3CC(=O)N([C@H](C)CO)C[C@H]2C)cc1
 : 0	-2	1.2
> COCC(=O)N1CC2(C1)[C@H](c1ccccc1)[C@H](CO)N2C(=O)c1ccccc1
 : 8	4	4.2
> C[C@@H]1CN([C@H](C)CO)C(=O)c2cc(NC(=O)CCCN(C)C)ccc2O[C@@H](C)CCCCO[C@@H]1CN(C)S(=O)(=O)c1cn(C)cn1
 : 4	3	1.2
> CN1c2ccc(C3=CCCCC3)cc2[C@@H]2[C@@H](CCN2C(=O)c2ccc3c(c2)OCO3)[C@@H]1CO
 : -10	2	-12
> COc1ccc(NC(=O)N2C[C@H](O)COC[C@@H]3O[C@H](CC(=O)N4CCCCC4)CC[C@H]32)cc1
 : 9	5	3.9
> C[C@@H]1C(=O)N[C@@H](c2cccc(Cl)c2)CC=CC[C@H](C)Oc2ccccc2C(=O)N1C (mixture of isomers)
 : -6	-4	-2.4
> CO[C@@H](C(=O)N(C)C[C@@H]1OCc2ccccc2-c2ccccc2C(=O)N([C@@H](C)CO)C[C@@H]1C)c1ccccc1
 : 9	2	6.5
> CCCNC(=O)N1CC2(C1)[C@@H](c1ccccc1)[C@H](CO)N2CC1CCOCC1
 : 17	10	6.8
> O=C(C[C@@H]1CC[C@@H]2[C@H](COC[C@@H](O)CN2C(=O)Nc2ccccc2)O1)NCc1ccccc1F
 : 4	-1	5.6
> C[C@H](NC(=O)C[C@@H]1C=C[C@H](NC(=O)CN2CCOCC2)[C@H](CO)O1)c1ccccc1
 : 5	4	1.2
> O=C(c1cccnc1)N1CC(=O)N2[C@H](CO)[C@H](c3ccc(-c4ccccc4F)cc3)[C@H]2C1
 : 11	14	-3.4
> N#C[C@H]1[C@H](c2ccc(C#Cc3ccccc3F)cc2)[C@H](CO)N1C(=O)c1cccnc1
 : 3	-1	3.4
> COc1ccc2c3c(n(C)c2c1)[C@@H](CO)NCC31CCN(Cc2ccccc2F)CC1
 : -7	-1	-5.9
> CCC(=O)N1[C@@H]2Cn3c(ccc(-c4ccc(F)cc4)c3=O)[C@H]1[C@@H](C(=O)N(C)C)[C@@H]2CO
 : 9	8	1.2
> Cc1ccccc1S(=O)(=O)N1CC[C@@H]2[C@H]1c1cc(-c3cccc(F)c3)ccc1N[C@@H]2CO
 : 13	7	6.3
> C[C@@H]1CN([C@H](C)CO)C(=O)CCCn2cc(nn2)CO[C@@H]1CN(C)S(=O)(=O)c1ccc(Oc2ccccc2)nc1
 : 4	9	-4.7
> CCS(=O)(=O)N1CC(=O)N2[C@H](CO)[C@@H](c3ccc(-c4ccccc4C)cc3)[C@@H]2C1
 : -6	-7	1.3
> C[C@H](NC(=O)C[C@@H]1CC[C@@H]2[C@H](COC[C@H](O)CN2C(=O)Nc2cc(Cl)cc(Cl)c2)O1)c1ccccc1
 : 3	7	-4.3
> Cc1noc(C)c1S(=O)(=O)Nc1ccc2c(c1)C(=O)N([C@H](C)CO)C[C@H](C)[C@H](CN(C)Cc1ccc(C(=O)O)cc1)OCCCC[C@@H](C)O2
 : 0	-1	1.8
> CC(C)OC(=O)N(C)C[C@H]1OCc2ccccc2-c2ccccc2C(=O)N([C@@H](C)CO)C[C@H]1C
 : ?	/	/
> Cc1noc(C)c1NC(=O)N[C@H]1C=C[C@@H](CC(=O)N2CCCCC2)O[C@@H]1CO
 : -1	-2	0.8
> CN(C)c1ccc2c(c1)[C@@H]1C[C@H](CC(=O)O)O[C@@H](CO)[C@@H]1O2
 : 8	5	2.8
> C/C=C/c1ccccc1[C@@H]1[C@H](C#N)N(C(C)=O)[C@H]1CO
 : 17	6	11
> CNC(=O)C[C@@H]1CC[C@H]2[C@H](COc3ccc(NC(=O)C4CC4)cc3C(=O)N2C)O1
 : 2	2	0.0
> C/C=C/c1ccc([C@H]2[C@@H](CO)N(C(C)=O)[C@@H]2CN(C(=O)COC)C(C)C)cc1
 : 0	1	-0.4
> CN1C(=O)c2cc(NC(=O)c3cscn3)ccc2OC[C@H]2O[C@H](CC(=O)N3CCOCC3)CC[C@H]21
 : 1	2	-1.0
> COc1ccc(NC(=O)N(C)C[C@H]2OCCCC[C@@H](C)Oc3ccc(NS(=O)(=O)c4cccs4)cc3C(=O)N([C@@H](C)CO)C[C@@H]2C)cc1
 : -3	-8	4.7
> C[C@H]1CN([C@@H](C)CO)C(=O)CCCn2cc(nn2)CO[C@H]1CN(C)Cc1ccc2c(c1)OCO2
 : 4	3	0.6
> O=C(c1cccc(F)c1)N1CCCCN2[C@H](CO)[C@@H](c3ccc(-c4cncnc4)cc3)[C@H]2C1
 : 5	2	2.9
> CN1[C@@H]2c3cccc(=O)n3C[C@H]1[C@H](CO)[C@H]2C(=O)NCC1CCCCC1
 : 6	3	2.5
